# TRPML1 inh: qHTS for Inhibitors of the Human Mucolipin Transient Receptor Potential 1 (TRPML1). TRPML1-inducible cells, Ca2+ dye fluorescence, FDSS; active compounds read low; inhibition of EC80 agonist-evoked calcium signal. actives 0.02% (n = 390,000). AID 624415, 2012. activity change, negative = inhibition, % (concentration not given with the values); in the data active means activity change below about -50%; inconclusive means about -30% to -50%; inactive means above about -30%;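 further: stimulus is agonist 54-4 at its EC80 concentration; on the % scale 0 is the no-effect control and ±100 the full control effect; the text of the record puts the active cut at -80%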
# Target sequence (Q9GZU1 whole entry, looked up): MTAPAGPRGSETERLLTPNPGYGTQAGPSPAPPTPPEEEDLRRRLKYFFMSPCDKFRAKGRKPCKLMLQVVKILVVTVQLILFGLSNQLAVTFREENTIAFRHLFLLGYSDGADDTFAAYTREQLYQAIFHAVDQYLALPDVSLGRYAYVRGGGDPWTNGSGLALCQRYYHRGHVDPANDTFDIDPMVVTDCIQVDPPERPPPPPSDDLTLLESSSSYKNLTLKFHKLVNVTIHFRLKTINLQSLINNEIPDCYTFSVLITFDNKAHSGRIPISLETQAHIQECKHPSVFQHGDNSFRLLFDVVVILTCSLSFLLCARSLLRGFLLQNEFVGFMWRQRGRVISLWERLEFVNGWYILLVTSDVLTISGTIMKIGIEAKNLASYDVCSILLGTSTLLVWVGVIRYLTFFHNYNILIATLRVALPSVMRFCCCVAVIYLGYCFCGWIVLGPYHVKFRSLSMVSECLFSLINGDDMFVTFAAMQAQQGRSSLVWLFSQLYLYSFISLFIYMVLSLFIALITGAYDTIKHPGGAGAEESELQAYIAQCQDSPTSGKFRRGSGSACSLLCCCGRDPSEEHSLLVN
#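 TRPML1-DL cells, Tet-induced overnight (~16 h, 37 °C) at 1,500 cells/well, were loaded with Ca8 no-wash dye plus quencher for 45-90 min at room temperature. Compounds were pinned during FDSS kinetic reading; agonist 54-4 at EC80 (4 uM final) then added.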
# TRPML1 agonist: qHTS for Agonists of the Human Mucolipin Transient Receptor Potential 1 (TRPML1); AID 624414, 2012; TRPML1-expressing cells, Ca2+ dye fluorescence, FDSS; host cell line not named in the record; reference of the full effect not given here; actives 0.12% (n = 410,000); Mucolipin-1 (Homo sapiens), Q9GZU1; activation, % (concentration not given with the values); in the data active = activation above about 50%; inconclusive = about 30% to 50%; inactive = below about 30%; further: 0% is about no effect; the text of the record puts the active cut at 80%
#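 Calcium fluorescence on an FDSS kinetic reader gave the read-out. Tet-induced TRPML1-DL cells were plated overnight, dye-loaded (Ca8 with quencher, 45-90 min, room temperature, dark), then read 110 s after compound addition, and again 110 s after 4uM final 54-4 (EC80).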
# ClpP mod: qHTS Assay for Activators of ClpP | Potency, µM (doses to about 57.5 µM), for the others: top-dose activity change, negative = active | purified B. subtilis ClpP, FRET peptide cleavage, 20 min | AID 651965, 2013 | ATP-dependent Clp protease proteolytic subunit (Bacillus subtilis (strain 168)), P80244 | actives 1.9% (n = 340,000); active = well fitted falling curve with a large enough effect; inconclusive = small, poorly fitted or top-dose-only effect; inactive = no such curve, though single readings can be large or run the other way; further: potency means the concentration at half of the fitted maximal effect; the source files actives as falling curves though it sought activators and does not explain the sign; nearly all actives have a fitted effect of over 65% in size; many hits overshoot -100%
# Target sequence (P80244 whole entry, looked up): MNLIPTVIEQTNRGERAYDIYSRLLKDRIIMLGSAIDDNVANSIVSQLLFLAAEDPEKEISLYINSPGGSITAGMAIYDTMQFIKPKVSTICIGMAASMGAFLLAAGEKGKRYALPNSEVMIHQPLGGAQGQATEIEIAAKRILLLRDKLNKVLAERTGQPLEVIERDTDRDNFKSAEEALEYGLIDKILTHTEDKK
#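 Purified B. subtilis ClpP, 10 microg/mL final in Tris/HCl pH8 with KCl, BSA, glycerol and Tween-20, cleaved an Abz/nitrotyrosine-quenched decapeptide. Fluorescence (ex 320, em 430) was read at 0 and 20 min at room temperature. Delta was normalized to 5.8 microM ADEP and DMSO/no-enzyme controls.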
# TRPV1 potentiator: HTS Assay for Compounds that Act as Potentiators of the Vanilloid Receptor 1; Transient receptor potential cation channel subfamily V member 1 (Homo sapiens), Q8NER1; TRPV1-expressing cells, Fluo-8 calcium influx, capsaicin EC20 potentiation; host cell line not named in the record; control for the full effect not named in the record; potentiation, % at 8.33 µM; actives 0.02% (n = 320,000); AID 540277, 2011; active means potentiation above 80%; inconclusive means 30% to 80%; inactive means below 30%; further: 0% is about no effect
#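 TRPV1-expressing cells were cultured overnight at 35.5C and loaded with Fluo-8 calcium dye for 40 to 90 min at room temperature. After a 10 s baseline, compound was added and calcium influx was read kinetically for 3 min (ex 480/em 520 nm).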
# PINK1 expr mod: A Quantitative High throughput Screen to Identify Chemical Modulators of PINK1 Expression. PINK1 immunofluorescence, high-content cytometry, 24 h. Potency, µM (top dose mostly 76.6 µM), for the others: top-dose activation (PINK1 increase), actives largely listed as activators. actives 0.2% (n = 410,000); active = well fitted activation curve with a large enough effect; inconclusive = small, poorly fitted or top-dose-only effect; inactive = flat fitted curve, though single readings scatter; cell line not stated here;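 further: potency means the concentration at half of the fitted maximal effect; % of control where 0% means no effect; nearly all actives have a fitted effect of over 65% in size; a mitochondrial uncoupler was the plate control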
#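 Stable cell line, 250 cells/well, 12 h attachment; compounds pinned at 5 concentrations, 24 h; CCCP control. Fixed with nuclear dye, primary antibodies 12 h at 10 degrees C, secondary plus cell stain; laser-scanning cytometer read.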
# Menin MLL FP FL: qHTS Assay for Inhibitors Targeting the Menin-MLL Interaction in MLL Related Leukemias: Competition With Fluorescein Labeled MLL-derived Peptide; FP activity change, % at 61.4 µM; Fluorescence polarization, fluorescein-MLL peptide displacement from menin; 290,000 tested, under 10 active; inconclusive = falling polarisation curve, or a change in total fluorescence; inactive = total fluorescence flat and polarisation flat or rising; no compound was filed as active; the % refers to the polarisation; negative = inhibition;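 further: % of control where 0% means no effect; inhibitors lower the polarisation; unlabelled MLL peptide was the positive control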
# Sfp inh: qHTS Assay for Inhibitors of Bacillus subtilis Sfp phosphopantetheinyl transferase (PPTase); Biochemical Sfp PPTase activity, qHTS; 4'-phosphopantetheinyl transferase ffp (Bacillus subtilis), Q9F4F7; Potency, µM, for inactives: max response, negative = inhibition, most hits filed as inhibitors; actives 3.5% (n = 310,000); active means well fitted inhibition curve with a large enough effect; inconclusive means small, poorly fitted or top-dose-only effect, or another doubt; inactive means no such curve, though single readings can be large or run the other way;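 further: the enzyme is Sfp with the accession as filed and its product quenches rhodamine fluorescence; potency means the concentration at half of the fitted maximal effect; 0% = enzyme reaction without inhibitor and -100% = no enzyme wells; top concentration of the series not given in the record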
#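 Step 1, compound plus 15 nM Sfp-PPTase, 15 min, room temperature. Step 2, add rhodamine-CoA (5 uM) and BHQ-2-YbbR (12.5 uM). Step 3, read 525/598 nm fluorescence at 0 and 30 min.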
# * = called active by the depositor; ? = inconclusive; . = not tested or not shown; & = joins results of further samples.
# The line under a structure holds: TRPML1 inh	TRPML1 agonist	ClpP mod	TRPV1 potentiator	PINK1 expr mod	Menin MLL FP FL	Sfp inh
1: CC1CCN(CCCNC(=O)c2cc3c(=O)n(C)c4ccccc4c3n2C)CC1
 : -20	0.3	4.2%	-15	4.9%	2.0	13%
2: CCS(=O)(=O)N1CCC(n2c(C)nc3cccnc32)CC1
 : 12	0.0	-2.1%	.	0.9%	.	.
3: CC(C)(C)NCC(O)c1cc(O)cc(O)c1 (configuration not stated)
 : -15	0.5	1.2%	-3	2.1%	4.1&6.9&-11	19%&-7%
4: CC(=O)Nc1cnc(-c2ccccc2C(F)(F)F)cn1
 : .	-0.2	-26%	.	-0.1%	.	.
5: Cc1ccc(S(=O)(=O)N2CCC(NC(=O)c3cccc(F)c3)CC2)cc1
 : -8	-0.1	-1.3%	-1	4.0%	1.7	9%
6: CN(C)/C=N/S(=O)(=O)c1ccc(Cl)cc1
 : -1	0.8	-0.8%	5	0.5%	-15	9%
7: O=C(NCCN1CCN(S(=O)(=O)c2ccccc2)CC1)C(=O)Nc1ccc(F)cc1
 : -15	0.1	.	3	12%	.	16%
8: O=C(c1ccccc1)N1CCC2(CC1)NCCc1[nH]cnc12
 : -3	4.4	1.0%	-3	0.2%	-2.4	7%
9: COc1ccc(N2CCN(C(=O)CCc3ccccc3OC)CC2)cc1
 : 38	-0.3	0.3%	5	1.5%	2.9	9%
10: N#Cc1cccnc1N1CCN(C(=O)c2[nH]c(C(F)(F)F)nc2-c2ccccc2)CC1
 : .	-0.3	5.4%	.	3.3%	.	.
11: O=C(N/N=C/c1ccc(OC(=O)c2cccs2)cc1)c1ccc(F)cc1
 : -13	-0.2	-1.1%	-9	9.3%	0.5	-7%
12: O=C(CSc1nnc(Cc2ccccc2)o1)N1CCc2ccccc21
 : -3	1.7	-3.6%	-12	-1.3%	-2.0	8%
13: CC(=O)N1CCOc2ccc(S(=O)(=O)NCCc3ccccc3)cc21
 : -15	0.3	-3.0%	3	0.2%	-11	12%
14: CC(C)Oc1ccc(CNS(=O)(=O)c2cnc(N)nc2)cc1
 : -18	-0.1	-3.4%	.	0.0%	.	.
15: CCCC(C)C(=O)Nc1cc([N+](=O)[O-])ccc1Cl (configuration not stated)
 : -4	-0.6	.	-4	2.1%	0.3	15%
16: C[C@H](CO)N1C[C@H](C)[C@@H](CN(C)Cc2ccc(-c3ccccc3)cc2)OCc2cnnn2CCCC1=O
 : 0	0.3	0.3%	.	0.6%	.	.
17: O=C(/C=C/c1ccc(Cl)cc1)N1CCN(c2c(Cl)cccc2[N+](=O)[O-])CC1
 : 38	1.9	-2.1%	-16	0.0%	5.2	-10%
18: CC1Cc2ccccc2N1C(=S)NC1CCCC1 (configuration not stated)
 : 31	0.9	-1.0%	0	0.2%	.	18%
19: CCOC(=O)c1c(N=CN(C)C)c(C#N)n2c1CCC2
 : 4	1.8	-1.0%	1	-0.8%	0.4	8%
20: CCC1CCCCN1C(=O)CSc1nc2ncccc2[nH]1 (configuration not stated)
 : 0	3.1	-7.4%	-17	-1.3%	.	-7%
21: CCNc1c(NS(=O)(=O)c2ccc(C3CCCCC3)cc2)c(=O)oc2ccccc12
 : -2	2.4	.	-5	11%	-12	13%
22: CCP(=O)(CC)c1cccc(N)c1
 : -7	-0.3	-11%	7	1.1%	-7.0	13%
23: CSc1nncc(/C(C)=N\Nc2cccc(C)c2)n1
 : 31	0.1	1.1%	-3	11%	-1.5	-14%
24: CCOc1cccc2sc(NC(=O)c3ccc(S(=O)(=O)N4CCCCC4C)cc3)nc12 (configuration not stated)
 : 3	1.7	?	.	-0.7%	.	.
25: COc1ccc(-c2nc(N3CCCCCC3)sc2C(=O)c2ccccc2)cc1
 : -15	1.9	-0.9%	8	1.1%	0.4	-5%
26: CCc1ccc(OCC(=O)Nc2ncn[nH]2)cc1
 : -4	-0.7	0.8%	-1	-1.0%	-3.2	12%
27: Cc1ccc(CNC(=O)c2ccc(CS(=O)Cc3ccccc3Cl)o2)cc1 (configuration not stated)
 : 8	-0.5	-0.1%	-15	0.5%	.	3%
28: Nc1cnn(Cc2ccc(F)cc2)c1
 : 5	1.3	-1.0%	-3	-0.7%	-3.8	24%
29: O=C(CSc1ccccc1C(=O)O)Nc1ccc2c(c1)OCO2
 : 1	2.6	-2.9%	0	-0.7%	.	.
30: COc1ccc(NC(=O)CC2C(=O)NCCN2C(=O)c2ccccc2)cc1 (configuration not stated)
 : -3	0.2	.	.	0.0%	4.5	5%

# Values by screen from above.
# Entries 1–6 in Menin MLL FP FL read 2.0, ., 4.1&6.9&-11, ., 1.7, -15
# Entries 1–6 in Sfp inh read 13%, ., 19%&-7%, ., 9%, 9%

# New compounds follow:
# The line under a structure holds: TRPML1 inh	TRPML1 agonist	ClpP mod	TRPV1 potentiator	PINK1 expr mod	Menin MLL FP FL	Sfp inh
31: O=C(c1cccs1)N1C[C@@H](n2cc(-c3ccc(F)cc3)nn2)[C@H](O)C[C@@H]1c1ccccc1
 : 15	-0.2	1.3%	.	3.1%	.	.
32: O=C(COc1ccc(F)cc1Cl)Nc1ccc(N2CCOCC2)cc1N1CCOCC1
 : -10	0.1	-1.8%	-22	3.2%	.	.
33: CCCc1cc(=O)[nH]c(SCC(=O)Nc2ccc([N+](=O)[O-])cc2C#N)n1
 : 6	0.8	-0.9%	.	-0.5%	0.0	11%
34: COc1cccc(-n2c(SCC(=O)Nc3ccc4c(c3)OCO4)nc3c([nH]c4ccccc43)c2=O)c1
 : 4	0.7	?	.	?	.	.
35: CCOC(=O)[C@]12CCC=C1N(Cc1ccco1)C(=O)[C@H](CC(=O)NCCC(C)C)C2
 : .	-1.2	2.8%	.	2.2%	.	.
36: COc1ccc(OC)c(S(=O)(=O)NCC2CCCO2)c1 (configuration not stated)
 : 4	-0.3	-1.3%	-15	0.0%	0.3	4%
37: Cn1cnnc1SCC(=O)NC1CCCN(Cc2ccc(Cl)cc2)C1 (configuration not stated)
 : -17	0.1	-2.5%	-2	0.6%	3.0	12%
38: Cc1nn2c(N)c(C#N)cnc2c1-c1ccc(Cl)cc1
 : 9	-1.6	-4.4%	-5	9.9%	4.0	15%
39: COc1ccc(/C=C/c2ccccc2)cc1C1C2C=CCCC2(C)C(=O)N1Cc1ccccc1 (configuration not stated)
 : -11	1.0	.	.	.	6.5	?
40: CCN(CC)S(=O)(=O)c1cccc(-c2nnc(SCC(=O)c3ccc(Cl)s3)n2C)c1
 : -3	0.1	-1.4%	18	0.2%	5.7	4%
41: C[C@H](CO)N1C[C@H](C)[C@@H](CN(C)C(=O)NC2CCCCC2)Oc2ccc(NS(=O)(=O)c3ccccc3)cc2C1=O
 : 4	-0.2	-0.1%	.	0.6%	.	.
42: COC(=O)C1C(O)=C(C=NCc2ccccc2)C(=O)CC1(C)C (configuration not stated)
 : -9	-0.2	-0.2%	?	-1.0%	-0.7	6%
43: O=C(Nc1cc(Cl)ccc1N1CCOCC1)c1ccc2c(c1)OCO2
 : -7	-0.8	-0.2%	.	-1.6%	.	.
44: Cc1c(C)c2c(C)[nH]nc2oc1=O
 : -13	3.2	?	-18	0.8%	-1.3	-3%
45: CC(=O)c1ccc(NC(=O)CN2CCCC2)cc1
 : -8	0.9	.	5	0.8%	-0.2	15%
46: O=C(NC(=O)N1CCN(c2ccccc2)CC1)c1ccc(Cl)cc1
 : -12	-1.0	0.1%	-8	?	-1.6	5%
47: O=C(NCC1CCCO1)c1cc(S(=O)(=O)N2CCCCC2)ccc1Cl (configuration not stated)
 : 2	-0.3	-2.4%	-7	2.2%	.	.
48: CCn1c(CNC(=O)c2cc(OC)c(OC)c(OC)c2)cc2ccccc21
 : -1	0.1	.	0	7.0%	-0.8	18%
49: Cc1cc(C)c(S(=O)(=O)c2ccccc2C)c(OCC(C)(C)C)n1
 : 3	1.9	-2.2%	-9	25%	-1.0	3%
50: CN(C)c1ccc(-c2nc3n(n2)C(c2cccnc2)C2=C(CC(C)(C)CC2=O)N3)cc1 (configuration not stated)
 : -19	-0.1	14µM*	2	2.4%	10	3%
51: CC(C)Oc1ccc(CNC(=O)c2ccccc2NC(=O)c2nsc3ccccc23)cc1
 : -17	0.5	22%	.	0.2%	.	.
52: CSc1nc(-c2ccccc2)nn1C(=O)c1ccccc1
 : -25	-0.3	-0.5%	-1	0.0%	-0.1	-18%
53: Cc1cc2nc(C3CCCCC3)c(Cc3cccc(Cl)c3)n2c(C)c1Br
 : .	-0.1	-1.9%	.	6.6%	.	.
54: O=C(CC1Oc2ccccc2NC1=O)NC1CCCC1 (configuration not stated)
 : 9	-0.1	0.8%	?	3.1%	3.2	-1%
55: C=CCNC(=S)N/N=C/c1ccc(OCc2ccccc2)cc1
 : 6	-0.7	?	-5	-0.8%	-20	0%
56: O=C(CSc1ccccn1)N1CCN(c2ccc(Cl)cc2)CC1
 : -5	-0.5	1.2%	-15	1.4%	2.2	-23%
57: CC1CCCCN1C(=O)Cn1cc(/C=C2/C(=O)Nc3ccccc32)c2ccccc21 (configuration not stated)
 : .	.	.	13	.	?	-8%
58: Cc1nonc1C(=O)N/N=C/c1ccccc1
 : 8	-0.3	.	-11	0.3%	0.3	7%
59: CCN(CC)C(=O)C1=C(C)N(Cc2ccc(OC)cc2)C(=O)C(CC(=O)NCCCCc2ccccc2)C1 (configuration not stated)
 : -7	-0.5	0.8%	.	0.8%	.	.
60: C/C=C\C=C\C(=O)N1CC2(CC(c3cccc(NC(=O)/C(C)=C\C)c3)=NO2)C[C@H]1C(N)=O (some centres not stated)
 : 40	-0.5	-3.6%	-5	3.4%	7.3	16µM*
61: CC(=O)c1cccc(-c2ccnc3c2CC(C(=O)Nc2ccc(Cl)c(C(F)(F)F)c2)O3)c1 (configuration not stated)
 : .	-0.3	-0.2%	.	16%	.	.
